CDC25B CDK2 inh – human CDC25B-CDK2/CyclinA binding inhibition. P30305+P24941. HTRF CDC25B-CDK2/CyclinA binding, anti-His/anti-Flag; active compounds read high. z-score (test concentration not listed). 94,000 tested, 0.72% active. AID 1259370;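 note: score is relative to mean and SD of negative controls; strong numbers were not always called active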
TAR Tat displ – HIV-1 TAR-Tat binding disruption. 100,000 tested, 0.6% active. AID 1259389. z-score (test concentration not listed). HIV-1 TAR RNA, Tat peptide displacement FRET; active compounds read high;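 note: score is relative to mean and SD of negative controls; some compounds called inactive have numbers as strong as hits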
Active calls of the source: *; . = no result given.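 Rule for the calls: active = z-score from 3 up in half or more of its runs; inactive = the rest.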 Compounds as they come; overall some 0.94% were active at least once.

SMILES	CDC25B CDK2 inh	TAR Tat displ
Cc1c(C(=O)C(=O)N(C(C)C)C(C)C)c2ccccc2n1C	-4.54	.
Brc1ccc2[nH]c3nc(SCCN4CCOCC4)nnc3c2c1	-1	1.52
CCCCNC(=O)C1CCC(CNc2c(N3CCC(C)CC3)c(=O)c2=O)CC1 (centres undefined)	0.47	1.13
O=C(c1cc(S(=O)(=O)N2CCCC2)c[nH]1)N1CCc2ccccc21	.	2.23
CN(C)/C=C/C(=O)c1cccc(Cl)c1F	-0.91	.
CCCCNC(=O)c1ccc(N2CCCC2)c(NS(=O)(=O)c2ccc(C)cc2)c1	-2.73	.
O=[N+]([O-])c1ccc(Sc2ccc(Cl)cc2)c(-c2ccn[nH]2)c1	-0.4	.
O=C(Nc1cccc(Br)c1)C1CCN(c2ccc(-c3cccs3)nn2)CC1	.	-1.51
c1ccc(CCSc2nc3ccccc3[nH]2)cc1	-0.6	0.59
COCCNC(=O)Cn1ncn2nc(-c3ccco3)cc2c1=O	0.42	1.32
Clc1cccc(-n2ncc3c(N4CCCC4)ncnc32)c1	.	-1.42
Cc1cc(C)n(-c2ccc(C(=O)O)cn2)n1	-0.26	2.11
O=C(NCCN1CCc2ccccc2C1)c1cc2ccc3cccnc3c2[nH]1	.	1.05
CC1(C)CC(=O)C2=C(C1)OC(N)=C(C#N)C2c1cccc(Br)c1 (centres undefined)	-1.53	.
Cc1ccc(C)c(N2C(=O)N(Cc3ccc(Cl)cc3)C3CS(=O)(=O)CC32)c1 (centres undefined)	-2.73	-0.11
CCN(CC)CCNc1nc2cc(OC)c(OC)cc2c2nc(-c3ccccc3)nn12	-0.89	0.32
COc1ccc(OC)c(Nc2ncc3c(n2)CCN(Cc2ccc(C)s2)C3)c1	.	2.03
CN1C(=O)C2(/C(=C(/O)c3ccc(Cl)cc3)C(=O)C(=O)N2CCCN2CCOCC2)c2ccccc21 (centres undefined)	-1.36	0.84
O=C(CN1C(=O)c2cccnc2Sc2ccccc21)NCC1COCCO1 (centres undefined)	-1.24	-0.05
CCC(C)(C)NS(=O)(=O)c1ccc2c(c1)N(C(C)=O)CCS2	.	0.59

SMILES	CDC25B CDK2 inh	TAR Tat displ
CCCSc1nnc2c(n1)OC(C)=Nc1ccccc1-2	-0.87	0.79
O=C(O)COc1ccc(CO)cc1Cl	0.03	-0.21
Cc1ccc(C)n1-c1cc([N+](=O)[O-])ccc1N1CCN(S(=O)(=O)c2cn(C)cn2)CC1	-3.17	.
CCCCCCCCOC(=O)/C=C/c1ccc(O)c(O)c1	.	1.76
CSCCC(C(=O)N1CCCCC1)N1C(=O)C2C3c4ccccc4C(c4ccccc43)C2C1=O (centres undefined)	-0.51	0.05
CCCC[C@@H](C=O)NC(=O)[C@H](CC(C)C)NC(=O)OCc1ccccc1	.	-0.48
O=C(CN1N=NC2C(=O)N(c3ccc(Cl)cc3)C(=O)C21)Nc1ccc(F)cc1 (centres undefined)	.	-1.58
COc1cccc(C2C=C(C(=O)O)Nc3nnnn32)c1OC(C)C (centres undefined)	.	1.72
N#Cc1cccc2cccc(Sc3ccccc3)c12	-2.96	.
COC(=O)c1c(NC(=O)c2cc(OC)cc(OC)c2)sc2c1CCC2	-1.35	0.45
Cc1ccsc1CN(C(=O)COc1ccc(Cl)cc1)C1CCS(=O)(=O)C1 (centres undefined)	0.09	0.38
CCN(CC)C(=O)Cn1cnc2sc(C(=O)N3CCCCC3C)c(C)c2c1=O (centres undefined)	-1.08	.
O=S1(=O)C[C@H](N2CCN(c3cccc(Cl)c3)CC2)[C@@H](S(=O)(=O)c2ccc(F)cc2)C1	-1.31	1.29
CC(C)CNC(=O)NCCn1cnc2cc(C(=O)NC3CCCC3)ccc21	.	0.65
CS/C(Nc1ccc(C)c(F)c1)=C(\C#N)c1ccccn1	-0.96	.
Cc1ccc(-n2c(=O)[nH]c3c(C(N)=O)nc(-c4ccco4)nc32)cc1	-0.5	.
FC(F)(F)c1ccn(-c2nc(-c3ccccc3)ns2)n1	-1.89	.
CCN1C(=O)N(COC(C)=O)C2C1N(CC)C(=O)N2COC(C)=O (centres undefined)	-3.27	.
CCOC(=O)C1CCN(C(=O)c2sccc2Cl)CC1	-0.68	.
Cc1cc(=O)nc2c3ccccc3n(CC(=O)NCc3ccc4c(c3)OCO4)n12	-1.04	2

SMILES	CDC25B CDK2 inh	TAR Tat displ
C=CCc1ccc(OCCCCCN2CCOCC2)c(OC)c1	0.87	0.45
O=C(CSc1nc2cc3ccccc3cc2[nH]1)Nc1ccc(F)cc1	-1.01	-0.57
Cc1ccc(-c2noc(-c3cn(Cc4ccc(NS(=O)(=O)c5ccc(C)cc5)cc4)cn3)n2)cc1	-0.51	-0.45
CSC(=NCc1sccc1CSc1ccc(Cl)cc1)NC#N	-1.02	.
CC(C)OCCCn1c(=O)c2ccccc2n2c(-c3cccs3)nnc12	-1.45	0.97
O=C(c1cc(-c2ccc(Br)cc2)on1)N1CCCCC1	-0.45	.
CCc1ccc(N2CCn3c2nc2c3c(=O)n(CC)c(=O)n2C)cc1	.	2.28
CC(C)C(NS(=O)(=O)c1cccs1)C(=O)NCCCN1CCCCC1 (centres undefined)	.	0.42
O=C(c1ccco1)N1CCN(C(=O)C2CCCN(S(=O)(=O)c3cccc4nsnc34)C2)CC1 (centres undefined)	-0.03	-0.39
CCOC(=O)c1c(-c2ccc(OC)cc2)oc2ccc(OCC(=O)OC)cc12	-0.09	.
CC(C)(C)c1ccc(N/C=C(\C#N)C(=O)c2ccsc2)cc1	13.4*	.
CCc1cc2c(cc3c(=O)n(CC(=O)N4CCC(C)CC4)ncn32)s1	-0.22	.
c1cnc2nc(SCCN3CCOCC3)[nH]c2c1	0.6	1.12
O=C(O)Cn1c(=O)n(CC(=O)O)c2ccccc21	-0.11	0.72
COc1ccccc1C1SCCN1S(=O)(=O)c1cccc(C)c1 (centres undefined)	-0.13	.
COc1ccc(C2C(=O)N(C3CCCCC3)CC(=O)N2Cc2ccco2)cc1 (centres undefined)	-2.13	.
COc1ccc(Cl)cc1Nc1ncnc2sc(C(=O)O)c(C)c12	.	3.89*
CC(=O)N1c2ccc(S(=O)(=O)N3CCOCC3)cc2CC1C(=O)NC1CCCCC1 (centres undefined)	.	0.52
CCCC(CCC)C(=O)OC1CC2CCC(C1)[N+]2(C)C (centres undefined)	-1.39	.
Cc1ccc(-c2nc3cnccn3c2Nc2ccc3c(c2)OCO3)o1	1.15	.

Quoted at random: five entries already listed, in no set order.
SMILES	CDC25B CDK2 inh	TAR Tat displ
CCCC(CCC)C(=O)OC1CC2CCC(C1)[N+]2(C)C (centres undefined)	-1.39	.
CC(C)(C)c1ccc(N/C=C(\C#N)C(=O)c2ccsc2)cc1	13.4*	.
O=C(c1cc(-c2ccc(Br)cc2)on1)N1CCCCC1	-0.45	.
C=CCc1ccc(OCCCCCN2CCOCC2)c(OC)c1	0.87	0.45
CSC(=NCc1sccc1CSc1ccc(Cl)cc1)NC#N	-1.02	.

New compounds follow:
SMILES	CDC25B CDK2 inh	TAR Tat displ
O=C(CN1c2cccc3cccc(c23)S1(=O)=O)Nc1cccc(F)c1	-1.06	0.89
COCCCNc1nc2c(S(=O)(=O)c3cc(C)ccc3C)nnn2c2ccsc12	.	-0.95
C/C(=N\OCc1ccc(C(=O)N2CCOCC2)o1)c1cccc(C(F)(F)F)c1	-1.09	.
Cc1ccc(NC(=O)Cn2cnc3c2c(=O)n(C)c(=O)n3C)nc1	-1.59	.
COC(=O)c1c[nH]n2c(=O)c3c(nc12)CCC3	-1.96	-0.09
Cn1nc([N+](=O)[O-])nc1Sc1nnc(-c2ccco2)o1	-1.35	1.46
O=C(O)Cc1c(-c2ccc(Cl)cc2)nc2ccccc2c1C(=O)O	-2.43	.
Cc1ccc(CC2CC(=O)N(c3ccc(C(=O)O)cc3)C2=O)cc1 (centres undefined)	0.75	-1.25
O=S1(=O)N=C(SCc2ccccc2)Nc2ccccc21	.	1.68
CCOc1cc(C2N=C(N)Nc3nc4ccccc4n32)ccc1O (centres undefined)	-2.26	-0.26
CCSC1=C(C#N)C(=O)NCS1	-1.52	0.62
CCOc1cc(C2c3c(oc4ccccc4c3=O)C(=O)N2Cc2ccc3c(c2)OCO3)ccc1O (centres undefined)	2.32	0.46
O=C1CCc2cc(S(=O)(=O)Nc3ccc(Cl)cn3)cc3c2N1CC3	.	1.21
COC(=O)c1sc(C(C)(C)C)cc1NC(=O)Nc1ccc(Cl)cc1	0.15	.
Cn1c(=O)c2c(ncn2CCCN)n(C)c1=O	-0.7	0.23
Fc1ccccc1-c1ccc(CNCC2CCCO2)o1 (centres undefined)	.	1.06
Cc1nc2c3ccccc3n3c(CCCC(=O)N4CCc5ccccc5C4)nnc3n2n1	0.27	.
Cc1ccc(S(=O)(=O)c2nnn(-c3cccc(C)c3)c2N)cc1	1.73	0.52
Cc1cc(O)c(C=O)c2c1C(=O)Oc1c(COC(=O)/C=C/C(=O)O)c(O)c(C(=O)O)c(C)c1O2	.	3.92
CCOC(=O)N1CCN(S(=O)(=O)c2ccc3c(c2)oc(=O)n3C)CC1	-1	0.22

SMILES	CDC25B CDK2 inh	TAR Tat displ
Cc1cc(-c2ccc(C)c(S(=O)(=O)N(Cc3ccccc3)C(C)(C)C)c2)on1	.	1.19
Oc1ccc(CN2CCN(c3ccccc3)CC2)c2cccnc12	.	2.12
O=C(CSc1nnc(-c2ccc(C(F)(F)F)cc2)o1)c1ccc(F)cc1	-2.17	.
CN(C)CCNC(=O)c1ccc(N2CCOc3ccc(Cl)cc32)s1	.	1.61
Cc1ccc(Cc2nc(CCNS(=O)(=O)c3cn(C)cn3)n[nH]2)cc1	.	1.39
COCc1cnc2c(c1SCC(=O)Nc1nnc(C)s1)c(=O)n(C)c(=O)n2C	.	0.62
CC(=O)c1cccc(-n2c(N)c(C#N)c3nc4ccccc4nc32)c1	0	.
CCOC(=O)N1CCN(c2ncc3c(n2)CC(/C=C/c2ccccc2)CC3=O)CC1 (centres undefined)	-0.67	2.31
O=C(Cc1cccs1)Nc1nc2ccccc2s1	1.39	0.35
CCCCNc1oc(/C=C/c2ccc(OC)c(OC)c2)nc1C#N	-0.5	-0.13
O=C(CCCCn1c(=O)[nH]c2ccsc2c1=O)N1CCN(Cc2ccc3c(c2)OCO3)CC1	2.36	-0.79
CC(CCC(=O)O)[C@H]1CCC2C3CC[C@@H]4CCCC[C@]4(C)C3CC[C@@]21C (some centres undefined)	.	0.6
O=C(CCCc1nnc2c(=O)n(-c3ccc(Cl)cc3)ccn12)N1CCN(C2CCCCC2)CC1	.	-0.47
Cc1ccc(C(=O)Nc2cnc3sc(C)nn3c2=O)cc1	-0.35	0.63
COc1ccc(-c2noc(NCc3ccc4c(c3)OCO4)n2)cc1OC	.	0.73
CN(C(=O)CN(C)S(=O)(=O)c1ccc2[nH]c(=O)ccc2c1)C1CCCCC1	.	-1.2
C=CCSc1nc(C2CC2)cc(-c2ccccc2)c1C#N	-0.59	-0.2
CN1CCN(c2ncnc3c2cnn3-c2cccc(Cl)c2)CC1	.	1.47
Nc1ccc(C(=O)O)c(O)c1 (tested in a mixture with another compound)	.	16.1*
O=C(CSc1nc(-c2cccc(Cl)c2)nc2cc(=O)[nH]n12)NCc1nc2ccccc2[nH]1	.	-1.11

Continued, overlapping the part above by 2 compounds.
SMILES	CDC25B CDK2 inh	TAR Tat displ
Nc1ccc(C(=O)O)c(O)c1 (tested in a mixture with another compound)	.	16.1*
O=C(CSc1nc(-c2cccc(Cl)c2)nc2cc(=O)[nH]n12)NCc1nc2ccccc2[nH]1	.	-1.11
Cc1ccc(-c2noc(-c3cccc(Cl)c3)n2)cc1	-1.57	.
CC(=O)N1CN(CCCn2ccnc2)Cc2c1sc1c2CCCC1	0.05	0.41
Cc1nc2sccn2c(=O)c1S(=O)(=O)Nc1ccc2c(c1)OCCO2	.	-1.83
Cc1cccc(-c2nc3nc(C)cc(N(C)Cc4ccccc4)n3n2)c1	-1.37	2.82
CCOC(=O)c1ccc(-n2c(N)c(C(=O)OC)sc2=S)cc1	.	1.65
Cn1nc(CC(=O)Nc2nnc(SCCC(=O)Nc3ccccc3)s2)c2ccccc2c1=O	0.13	1.88
CCN(c1ccccc1)S(=O)(=O)c1c(C)nc2scc(C)n2c1=O	-1.48	0.83
CSc1ccc(CCNc2ncnc3c2nc2n3CCCCC2)cc1	.	-1.03
COC(=O)c1ccc(N2CCc3ccccc32)s1	-1.4	0.53
Cn1nnnc1SCCNCc1ccc(OCc2ccccc2Cl)cc1	2.01	0.86
CC(C)C(NC(=O)C(Cc1ccc(O)cc1)NC(=O)C(NC(=O)C(F)(F)F)C(C)C)C(=O)O (centres undefined)	.	1.03
CC1(C)CC(CCN)(Cc2ccccc2)CCO1 (centres undefined)	-2.14	-0.92
CNC(=S)NNC(=O)Cc1ccsc1	-3	.
O=C(CSc1cn(CC(=O)N2CCCCC2)c2ccccc12)N1CCCC1	.	-1.46
Cc1ccc2c(c1)n(CC(=O)O)c(=O)n2CC(=O)O	-1.67	-0.8
CCC(C)NC(=O)CN(C)c1nnc(N2CCCC2=O)s1 (centres undefined)	-1.87	3.01
Cc1ccccc1OCCSc1nc(-c2ccc3c(c2)OCO3)nc2cc(=O)[nH]n12	.	1.28
CCC(C)NS(=O)(=O)c1cc(-c2ccc(=O)[nH]n2)ccc1C (centres undefined)	-1.95	-0.38
COc1ccc(CC(=O)NCC(=O)n2nc(C)cc2C)cc1	-0.09	.
O=C1C2CC=C(Cl)CC2C(=O)N1Cc1ccccc1 (centres undefined)	-0.47	0.59

Screens as filed in PubChem.
